# A488 fluor: compound fluoresces in the A488 spectral region. compound autofluorescence, A488 spectral region, dye equivalency; active compounds read high. max dye equivalency, M. hit rate 0.1% among 59,000. AID 591; active = above 10 nM dye equivalent; inconclusive = 1 to 10 nM; inactive = 1 nM or less; about half of its hits are not listed in these tables;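 also: highest value over a series up to 38 µM; compound alone in buffer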
#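 Compounds pin-transferred into 100 mM Tris buffer, pH 8.0, incubated 15 min at room temperature, then imaged with 480 nm excitation/540 nm emission filters. Fluorescence converted to Alexa 488 dye-equivalent concentration via an on-plate six-point A488 standard curve.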
# AID923: qHTS Assay for Allosteric/Competitive Inhibitors of Caspase-1: Spectroscopic Profiling in AFC Spectral Region; compound fluorescence, AFC spectral region (405/520 nm); almost no hit is shown here; Potency, µM (series often up to 57.5 µM), for inactives: at the top dose fluorescence increase, hits mostly activators; hit rate 1.1% among 75,000; AID 923, 2007; active = well fitted activation curve with a large enough effect; inconclusive = small, poorly fitted or top-dose-only effect;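 also: potency is read from the fitted curve at half-maximal effect; 0% is about no effect; scaled to a free AFC standard on each plate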
#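 Compound autofluorescence profiled at 405 nm ex/520 nm em during kinetic caspase 1 run (50 nM enzyme, 5 uM Ac-WEHD-AFC, HEPES pH 7.5, 10 mM DTT). Titration up to 57 uM; baseline from regression intercept, normalized to AFC standard curve.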
# TSHR agonist: TSH receptor (human) agonism | P16473 | hit rate 0.48% among 73,000 | HEK293-CNG-TSHR cells (CNG channel as cAMP sensor), membrane potential dye, cAMP | Potency, µM (doses to about 57.1 µM), without a hit: top-dose activation, most hits filed as activators; active = well fitted activation curve of enough size with the parental cells flat; inconclusive = any curve in the parental cells; inactive = parental cells flat and receptor cells flat or falling; also: potency is read from the fitted curve at half-maximal effect; % of control where 0% means no effect; weak receptor curves with flat parental cells got no call and are not listed
# Target sequence (P16473 whole entry, looked up): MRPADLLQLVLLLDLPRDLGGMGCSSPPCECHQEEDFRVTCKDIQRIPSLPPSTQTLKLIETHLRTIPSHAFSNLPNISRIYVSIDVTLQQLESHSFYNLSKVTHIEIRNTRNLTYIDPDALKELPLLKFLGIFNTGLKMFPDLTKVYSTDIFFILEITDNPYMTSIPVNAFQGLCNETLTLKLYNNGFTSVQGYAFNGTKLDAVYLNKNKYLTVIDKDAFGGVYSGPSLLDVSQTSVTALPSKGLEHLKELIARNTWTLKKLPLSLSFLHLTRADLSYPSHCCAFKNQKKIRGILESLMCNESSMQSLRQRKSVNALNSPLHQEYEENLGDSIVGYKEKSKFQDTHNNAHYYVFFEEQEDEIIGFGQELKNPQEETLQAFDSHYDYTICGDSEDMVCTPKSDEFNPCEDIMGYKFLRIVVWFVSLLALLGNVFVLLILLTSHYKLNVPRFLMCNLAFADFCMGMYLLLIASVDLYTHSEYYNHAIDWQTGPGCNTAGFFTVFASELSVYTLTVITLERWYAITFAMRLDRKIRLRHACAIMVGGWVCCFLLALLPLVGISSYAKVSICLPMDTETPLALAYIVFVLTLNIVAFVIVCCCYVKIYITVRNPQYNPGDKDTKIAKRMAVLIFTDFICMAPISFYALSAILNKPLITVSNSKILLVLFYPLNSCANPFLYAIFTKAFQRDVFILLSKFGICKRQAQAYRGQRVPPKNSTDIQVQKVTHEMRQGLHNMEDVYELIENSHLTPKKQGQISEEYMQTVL
#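 HEK 293 cells stably expressing TSHR and a modified CNG channel, with CNG-only parental cells as counterscreen, were preloaded 60 min at room temperature with membrane potential dye containing 100 uM RO 20-1724. Compound exposure was 30 min, and depolarization was read as fluorescence at 590 nm.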
# Resorufin fluor: compounds fluorescent in resorufin spectral region; Compound fluorescence, resorufin region 547/598 nm, buffer; active compounds read high; max dye-equivalent concentration, M; hit rate 0.04% among 59,000; AID 588; active = above 10 nM dye equivalent; inconclusive = 1 to 10 nM; inactive = 1 nM or less; a few of its hits are not listed in these tables; also: highest value over a series up to 38 µM
#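 Dye-equivalent concentration values derive from comparing each well's 547/598 nm fluorescence against resorufin standards included on every plate. Incubation was 15 min at room temperature in 100 mM Tris, pH 8.0.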
# A647 autofl: compound fluoresces in the A647 spectral region. AID 592. Compound fluorescence, A647 channel (570/671 nm), Tris buffer. max dye-equivalent concentration, M. 59,000 tested, under 10 active; active means above 1 µM dye equivalent; inconclusive means 0.1 to 1 µM; inactive means 0.1 µM or less;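 also: values scaled relative to a standard on each plate; highest value over a series up to 38 µM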
#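 Spectral profiling of library compounds in pH 8.0 Tris: 15 min room-temperature incubation, single ex/em pair (570/671 nm), response normalized to Alexa 647 equivalents.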
# Starred values were filed as active, the others as inactive; i = inactive; ? = inconclusive; · = no result given; & = joins results of further samples; [ ] = another dose, or the depositor's remark.
SMILES,A488 fluor,AID923,TSHR agonist,Resorufin fluor,A647 autofl
O=C(/N=C1\NC(=O)C(F)(C(F)(F)F)S1)NC1CCCCC1 (stereo not given),i,-0.4%,3%,i,3.9e-08
COC(=O)c1c(NC(=O)CSc2nnnn2-c2ccccc2)sc2c1CCC(C)C2 (stereo not given),i,4.4%,15%,i,1e-09
CSc1nnc2c(n1)OC(c1cn(C)c3ccccc13)N(C(C)=O)c1ccccc1-2 (stereo not given),·,2.1%,2%[11.4 µM],·,·
Cc1ccn(CC(=O)O)c(=O)c1,i,-3.7%,-4%,i,1.1e-08
Cc1ccnc(NS(=O)(=O)c2cccc3nsnc23)c1,i,-0.4%,?,i,2.5e-08
Cc1ccc2cc(C)c(NCCO)nc2c1,i,0.1%,4%,i,8.1e-09
O=C1CS/C(=C\S(=O)(=O)c2ccc(Cl)cc2)N1,i,1.7%,-11%,i,1e-09
COCc1nc2c([nH]1)c(=O)n(C)c(=O)n2CC(C)C,i,-1.8%,?,i,1e-09
O=C1c2ccccc2C(Nc2ccc(S(=O)(=O)N3CCOCC3)cc2)N1c1cccnc1 (stereo not given),·,-1.8%,15%,·,·
O=S(=O)(c1cccc(Cl)c1Cl)N1CCCCC1,i,-1.2%,·,i,3.1e-08
CCCCSc1nnc([C@H](C)NC(=O)OC(C)(C)C)o1,i,2.3%,13%,i,1e-09
COc1cc(NC(=O)CN(c2ccc(C)cc2)S(=O)(=O)c2c(C)nn(C)c2C)cc(OC)c1,i,-1.3%,15%,i,6.9e-09
CCN(CC)C(=O)CN(c1cc(Cl)ccc1OC)S(C)(=O)=O,i,-2.0%,-3%,i,2.4e-08
COC(=O)c1cc2ccsc2n1Cc1nc(-c2ccc(OC)cc2)oc1C,i,0.5%,12%[11.4 µM],i,1.6e-08
CN(Cc1ccco1)c1cc(-c2ccoc2)ncn1,i,9.3%,4%,i,8.6e-09
CCN1CCN(C(=O)c2nn(-c3ccc(C)cc3)c(=O)c3c2c2ccccc2n3C)CC1,i,-0.2%,?,i,3.4e-09
CCCOc1ccc2[nH]cc(C(=O)O)c(=O)c2c1,i,-0.5%,4%,i,1.3e-08
Cc1nn2c(CN(C(=O)c3ccco3)c3ccccc3)nnc2c2ccccc12,i,-0.9%,?,i,3.9e-09
CCOC(=O)COn1c(=O)c[n+]([O-])c2ccccc21,i,4.3%,-2%,i,1.1e-09
Cc1csc(NC(=O)Cc2nn(C)c(=O)c3ccccc23)n1,i,0.8%,3%[11.4 µM],i,1e-09
COc1cccc(Nc2ncc3ncc(=O)n(CCc4ccccc4)c3n2)c1,i,11%,3%,i,1e-08
Cc1ccsc1C(=O)OCC(=O)NCc1ccc2c(c1)OCO2,i,-1.0%,7%,i,1e-09
Cn1c(NCc2cc(Br)ccc2O)nc2ccccc21,·,2.5%,-21%,·,·
Cc1c(C(=O)NCC2CCCO2)oc2ccc(S(=O)(=O)N3CCCC3)cc12 (stereo not given),i,1.3%,-3%[11.4 µM],i,3.6e-08
NC(=O)CSc1nc(N)c2c3c(sc2n1)CCCCC3,i,·,·,i,1e-09
COc1ccc(C(c2nnnn2Cc2ccccc2)N2CCN(C(=O)c3ccco3)CC2)cc1OC (stereo not given),i,0.5%,?,i,4.8e-08
O=S(=O)(Cc1ccccc1)N1CCN(Cc2ccc3c(c2)OCO3)CC1,·,-1.0%,23%,·,·
CCOC(=O)C1CCCN(C(=O)CCNS(=O)(=O)c2ccc3c(c2)CCC(=O)N3)C1 (stereo not given),i,-1.0%,0%,i,4.2e-09
COCCN(C(=O)c1csnn1)C(C(=O)NC1CCCCC1)c1sccc1C (stereo not given),i,1.3%,?,i,7e-09
O=C1C(Cl)=C(NCC2CCCO2)C(=O)N1C1CCCCC1 (stereo not given),·,4.9%,18%,·,·
Cc1cnc(CNc2cc(-c3ccc(C(=O)N(C)C)cc3)ncn2)cn1,i,1.4%,3%,i,3.1e-08
Cn1nnnc1Sc1nc(-c2cccnc2)nc2ccccc12,i,-0.2%,·,i,1.1e-08
O=c1cc(CN2CCOCC2)c2c(ccc3ccccc32)o1,i,3.2%,?,i,1e-09
CC(C)NC(=O)N1CC[C@@]2(CCCN(S(=O)(=O)c3ccccc3)C2)C1,i,3.5%,1%,i,2.4e-09
CCn1nc(C)c(NC(=O)CCCSc2nc(-c3ccco3)cc(C(F)(F)F)n2)c1C,i,-0.3%,?,i,2.9e-09
CC1Cc2ccccc2N1C(=O)C1CCN(S(=O)(=O)c2cccs2)CC1 (stereo not given),i,0.3%,-2%[11.4 µM],i,3.4e-09
CCOC(=O)N1CCC(NC(=O)Cn2cc3c(n2)CCCC3)CC1,·,2.8%,2%,·,·
COc1ccc(CN(Cc2cc3cc4c(cc3[nH]c2=O)OCO4)C(=O)NC2CCCCC2)cc1,i,0.4%,18%,i,3.3e-08
CCOc1ccc(-n2c(=O)[nH]cc(C(=O)N3CCc4ccccc43)c2=O)cc1,i,-0.1%,4%,i,1.9e-09
CCOC(=O)c1c(C)n(C)c2ccc(O)c(CN3CCC(C)CC3)c12,i,0.3%,?,i,2.9e-08
COc1ccc2c(C)cc(SCC#N)nc2c1,i,3.5%,?,i,1e-09
CS(=O)(=O)N(CC(=O)N1CCc2ccccc2C1)c1ccc2c(c1)OCO2,i,1.7%,4%,i,2.7e-08
O=C1C2C(C(=O)N1c1ccc3c(c1)OCO3)C1C=CC2C12CC2 (stereo not given),·,-0.1%,10%,·,·
CCOC(=O)n1c(=O)oc2cc(S(=O)(=O)N3CCOCC3)ccc21,i,3.2%,-2%,i,1e-09
COC(=O)c1[nH]c2ccc(C)cc2c1NS(=O)(=O)c1ccc(F)c(C)c1,i,-1.1%,·,i,1e-09
O=[N+]([O-])c1ccccc1S(=O)(=O)NCC1CCC(CNCC2CCc3ccccc3C2)CC1 (stereo not given),·,-2.2%,?,·,·
Cn1nnc2c(sc3nc(N4CCOCC4)c4c(c32)CCCC4)c1=O,i,·,·,i,3.1e-09
Cc1cc(NC(=O)CSc2nnnn2C2CCCC2)no1,i,-1.5%,-5%,i,6.6e-08
CC(=O)Nc1nc(-c2ccc(Br)s2)cs1,i,0.0%,-13%,i,1e-09
CCOc1ccc2c(c1)sc(=NC(=O)C1CC1)n2C,i,0.0%,9%[11.4 µM],i,1e-09
CCOC(=O)N1CCC(NC(=O)C2CCCN(C(=O)N3CCOc4ccccc43)C2)CC1 (stereo not given),i,-2.1%,-3%,i,2.2e-08
CCCS(=O)(=O)N1CCC(C(=O)NCCN(C)Cc2ccccc2)CC1,i,-1.5%,9%,i,1.8e-08
Cc1cccc(C)c1NC(=O)C[N+](C)(C)C,i,-2.1%&-1.4%,17%&7%,i,3e-08
O=C(O)CC(NC(=O)COc1ccc(Cl)cc1Cl)C(=O)O (stereo not given),i,·,·,i,2.1e-08
CCn1cnc2c1c(=O)n(Cc1nnc3n1-c1ccccc1SC3)c(=O)n2Cc1ccccc1,i,0.9%,?,i,1.9e-08
Cc1ccc(NC(=O)Cn2c(C)cc(C)c(C#N)c2=O)c(Cl)c1,i,-0.9%,-2%,i,1e-09
C=CCSc1nc2c(c(=O)[nH]c(=O)n2C)n1C/C=C(/C)Cl,i,2.0%,6%,i,1e-09
CCNc1nnc(-c2ccccc2OC)s1,·,3.0%,4%,·,·
C=C1CC[C@@H]2[C@](C)(CC[C@@H](O)[C@]2(C)CO)[C@@H]1C/C=C1/C(=O)OC[C@H]1O,i,·,5%,i,3e-09
CCOC(=O)N1CCN(S(=O)(=O)c2ccc(C)c(C)c2C)CC1,i,0.3%,3%,i,1e-09

# (cont.)
SMILES,A488 fluor,AID923,TSHR agonist,Resorufin fluor,A647 autofl
COc1cccc(Oc2c(C)oc3c(CN4CCOCC4)c(O)ccc3c2=O)c1,i,2.5%,3%,i,9.5e-09
COCCn1c(=O)c(CCc2ccccc2)nc2cnc(N3CCOCC3)nc21,i,19%,13%,i,1e-09
CCN1CCN(c2ncc(C(=O)Nc3c(F)cc(F)cc3Br)c3ccccc23)CC1,i,0.9%,?,i,1.5e-08
CCN(CCCNC(=O)COc1cc(=O)n(C)c2ccccc12)c1ccccc1,i,-0.1%,-1%[11.4 µM],i,4.7e-09
O=C(Cc1c(F)c(F)c(F)c(F)c1F)OC12CC3CC(C1)C(=O)C(C3)C2,i,-0.5%,?,i,5.7e-09
CC(C(=O)NCc1ccccn1)N1C(=O)c2ccccc2C1=O (stereo not given),·,3.9%,-5%,·,·
CCN(c1ccccc1)S(=O)(=O)c1ccc(C(=O)Nc2nnc(COC)o2)cc1,i,1.2%,-1%,i,1e-09
C=C1C(=O)O[C@@H]2[C@H]3O[C@]3(C)CCC=C(C)CC[C@@H]12,i,-0.3%,16%&5%,i,2.1e-08
c1nc(NCCN2CCOCC2)c2cc(-c3ccoc3)ccc2n1,i,2.7%,3%,i,1e-09
CCOC(=O)c1cnn(-c2nc(SC)nc3sc4c(c23)CCC4)c1N,i,-1.0%,2%,i,3.9e-08
Cn1ncc2c(Nc3ccccc3Br)ncnc21,i,·,·,i,9.8e-09
C1COC1,·,1.5%,?,·,·
CN(C)S(=O)(=O)N1CCN(CC(=O)Nc2cc(Cl)ccc2Cl)CC1,i,-0.6%,21%,i,8.6e-08
O=C(O)c1[nH]nc2c1COc1ccccc1-2,i,-2.4%,6%,i,1e-09
CC(=O)C1=C(O)C(=O)N(CO)C1c1ccccc1F (stereo not given),i,0.0%,2%,i,1e-09
CCC1(CC)NC(=O)N(CC(=O)Nc2sc3c(c2C(N)=O)CCC3)C1=O,i,7.1%,-4%,i,1.3e-08
Cc1cc(C)nc(NC(=O)Nc2ccccc2C(F)(F)F)n1,i,-2.0%,?,i,2.7e-08
O=C(NCCCn1ccnc1)c1ccncc1,i,-1.7%,-4%,i,4.2e-09
COCC(=O)N1CCC2(CC1)CN(c1cccc(-c3ccccc3)c1)C2,i,0.9%,·,i,1.6e-08
CC(=O)Nc1ccc(S(=O)(=O)c2c(N)n(CCN3CCOCC3)c3nc4ccccc4nc23)cc1,i,13%,0%,i,2.8e-08
CCOC(=O)c1cc2sccc2n1CC(=O)OC(C)C,i,1.0%,?,i,6.7e-09
COc1cccc(Nc2ncc3ncc(=O)n(C[C@H]4CCCO4)c3n2)c1,i,4.3%,?,i,1e-09
Cc1ccc(CN2CCNC(=O)C2CC(=O)O)cc1 (stereo not given),·,-0.4%,-6%,·,·
COCCNc1ncnc2nc[nH]c12,i,2.1%,1%[11.4 µM],i,3.3e-08
Cc1cccc(OCC(=O)N2CCC(N3CCCCCC3)CC2)c1,i,·,·,i,1e-09

# Bioassay records as filed in PubChem BioAssay.

# The list is partial; count on the stated rates, not on these rows.
